High-throughput results as filed in PubChem BioAssay.
MARV entry inh: qHTS for inhibitors of binding or entry into cells for Marburg Virus | 300,000 compounds, 1.8% hits | Marburg virus pseudotyped entry inhibition, cell reporter; control for the full effect not named in the record; about a third of the inactives were read at about 46 µM | Potency, µM (highest dose often 37.8 µM), inactives show at the top dose activity change, negative = inhibition, actives largely listed as inhibitors; active = well fitted inhibition curve with a large enough effect; inconclusive = small, poorly fitted or top-dose-only effect, or effect the other way; inactive = flat fitted curve, though single readings scatter; tested in HEK293 cells; about a fifth of its hits are not listed in these tables; note: % is set by controls: 0 for no effect and ±100 for the full control effect; luciferase read-out
Cruzain inh Det: qHTS Assay for Promiscuous and Specific Inhibitors of Cruzain (with detergent) | Cruzipain (Trypanosoma cruzi), P25779 | purified cruzain, Z-FR-AMC fluorescence, 0.01% Triton | Potency, µM, inactives show max response, negative = inhibition, actives largely listed as inhibitors | 200,000 compounds, 0.43% hits | AID 1478, 2009;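 note: plate controls were neutral wells for no effect and buffer without enzyme for full effect; nearly all actives have a fitted effect of over 40% in size; top concentration of the series not given in the record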
Target sequence (P25779 123-467 limits assumed): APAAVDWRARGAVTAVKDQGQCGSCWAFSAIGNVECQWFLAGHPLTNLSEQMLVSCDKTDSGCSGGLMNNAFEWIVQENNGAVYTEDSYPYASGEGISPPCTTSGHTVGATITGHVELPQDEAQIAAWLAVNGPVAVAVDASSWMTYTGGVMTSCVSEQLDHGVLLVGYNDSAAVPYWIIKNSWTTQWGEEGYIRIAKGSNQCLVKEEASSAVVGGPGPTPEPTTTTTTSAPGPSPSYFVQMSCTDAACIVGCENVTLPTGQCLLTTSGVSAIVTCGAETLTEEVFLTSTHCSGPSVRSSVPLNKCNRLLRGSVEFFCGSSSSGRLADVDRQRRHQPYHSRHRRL
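In this qHTS format, compounds are incubated with 1.5 nM cruzain for 15 min at room temperature before 2 uM Z-FR-AMC is added. Release of AMC is followed at 360/450 nm, and progress is taken as the 60 s fluorescence difference.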
Cruzain inh noDet: qHTS Assay for Promiscuous and Specific Inhibitors of Cruzain (without detergent). Cruzipain (Trypanosoma cruzi), P25779. Potency, µM, inactives show max response, negative = inhibition, actives largely listed as inhibitors. purified cruzain, Z-FR-AMC fluorescence, no detergent. 200,000 compounds, 2.3% hits;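 note: plate controls were enzyme without inhibitor for no effect and buffer without enzyme for full effect; nearly all actives have a fitted effect of over 40% in size; top concentration of the series not given in the record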
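Purified cruzain at 1.5 nM, pre-incubated 15 min with compound at room temperature in 100 mM sodium acetate pH 5.5, 5 mM DTT, 0.00005% Triton X-100. Reaction started with 2 uM Z-FR-AMC; AMC fluorescence increase over 60 s gives rate.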
RE007 growth inh: qHTS Assay for Inhibitors of the HIV-1 protein Vpr; S. pombe RE007 Vpr strain, BacTiter-Glo ATP luminescence, 24 h; control for the full effect not named in the record; Potency, µM (highest dose often 92.2 µM), for inactives: at the highest dose activity change, negative = less growth; 360,000 compounds, 0.21% hits; AID 651644, 2012; active = well fitted falling curve with a large enough effect; inconclusive = small, poorly fitted or top-dose-only effect; inactive = no such curve, though single readings can be large or run the other way;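 note: % is set by controls: 0 for no effect and ±100 for the full control effect; nearly all actives have a fitted effect of over 50% in size; the assay follows cell death caused by Vpr and the record does not say whether a fall means rescue or toxicity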
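Fission yeast strain RE007, carrying one chromosomally integrated HIV-1 vpr copy, was seeded at OD 0.01 in PMG+AL medium with 23 nL pinned compound. After 24 h at 30 °C and 99% humidity, viability was read by BacTiter-Glo luminescence.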
SARS PLpro yeast: qHTS of Yeast-based Assay for SARS-CoV PLP; S. cerevisiae expressing SARS-CoV PLpro, growth rescue; control for the full effect not named in the record; Potency, µM (titrated, usually from 32.9 µM), for the others: at the top dose activity, positive = growth rescue; 330,000 compounds, 0.19% hits; active means well fitted rising curve with a large enough effect; inconclusive means small, poorly fitted or top-dose-only effect; inactive means no such curve, though single readings can be large or run the other way; note: 0% is about no effect; nearly all actives have a fitted effect of over 55% in size; growth read by luminescence after 48 h
NS1 function inh: qHTS Assay for Inhibitors of Influenza NS1 Protein Function | S. cerevisiae slowed by influenza A NS1, growth recovery by OD600 | Potency, µM (highest dose often 46.1 µM), without a hit: at the top dose activity, positive = more growth | 270,000 compounds, 0.4% hits; active means well fitted rising curve with a large enough effect; inconclusive means small, poorly fitted or top-dose-only effect; inactive means no such curve, though single readings can be large or run the other way; note: nearly all actives have a fitted effect of over 50% in size
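Recovery from NS1-induced slow growth read by OD600 in budding yeast switched to galactose assay medium (pH 6.0, -URA) at 1:100 dilution. Compound 23 nl per well; the matching strain lacking NS1 serves as control.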
2A StopGo: High Throughput Screening for Foot and Mouth Disease Virus Antivirals; human cells with a luciferase reporter of 2A StopGo recoding; control for the full effect not named in the record; Potency, µM (titrated, usually from 57.9 µM), without a hit: top-dose signal change, negative = less light; 410,000 compounds, 1.2% hits; AID 1159524, 2015; active = well fitted falling curve with a large enough effect; inconclusive = small, poorly fitted or top-dose-only effect; inactive = no such curve, though single readings can be large or run the other way; tested in HEK293T cells; note: % is set by controls: 0 for no effect and ±100 for the full control effect; nearly all actives have a fitted effect of over 45% in size; luciferase light after 4 h
Lassa entry inh: qHTS for Inhibitors of binding or entry into cells for Lassa Virus; AID 540256, 2011; Lassa virus pseudotype entry inhibition, cell reporter; control for the full effect not named in the record; Potency, µM (highest dose often 37.9 µM), without a hit: top-dose activity change, negative = inhibition, most hits filed as inhibitors; 300,000 compounds, 1.2% hits; active means well fitted inhibition curve with a large enough effect; inconclusive means small, poorly fitted or top-dose-only effect, or effect the other way; inactive means flat fitted curve, though single readings scatter; tested in HEK293 cells; note: % is set by controls: 0 for no effect and ±100 for the full control effect; nearly all actives have a fitted effect of over 50% in size; luciferase read-out
An asterisk follows results filed as active; [ ] = dose if it differs, or a comment. Unless noted, calls come from the whole dose curve; as a rule, active = well fitted curve in the direction sought with a large enough effect; inconclusive = small, poorly fitted or top-dose-only effect, or another doubt; inactive = no such curve, though single readings can be large; an effect the other way counts as inactive or inconclusive. Potency is the fitted concentration of half-maximal effect. Hits appear at their usual frequency (roughly 4.7% active in at least one column).

Screening COc1ccc(C)cc1NC(=O)c1sc2nc(-c3ccc(F)cc3)cn2c1C returned Cruzain inh Det 0.1%, Cruzain inh noDet -7%, 2A StopGo -8% and Lassa entry inh inconclusive.
`CC(=Nc1ccccc1)C1=C(O)CCCC1=O` gave MARV entry inh 22%, Cruzain inh Det -5.8%, Cruzain inh noDet -13%, RE007 growth inh 2%, SARS PLpro yeast inconclusive, NS1 function inh 4%, 2A StopGo 4% and Lassa entry inh -1%.
Screening COc1ccc(NS(=O)(=O)N2CCOCC2)cc1 returned MARV entry inh 2%[46.1 µM], RE007 growth inh 10%, SARS PLpro yeast 2%, NS1 function inh 6%, 2A StopGo 23% and Lassa entry inh inconclusive.
CCOc1ccc(-c2nc3c(c(SCC(=O)N4CCCCC4)n2)Cc2cccc(OC)c2O3)cc1 was read as MARV entry inh 0%[46.1 µM], Cruzain inh Det -0.9%, Cruzain inh noDet -1%, 2A StopGo -8% and Lassa entry inh 7%[46.1 µM].
CC(=O)N(C)c1ccc(NC(=O)Nc2ccc(C)c(C)c2)cc1 was read as MARV entry inh inconclusive, SARS PLpro yeast 2%, NS1 function inh -12%, 2A StopGo -3% and Lassa entry inh -17%[46.1 µM].
`COc1cc(/C=N/NC(=O)c2ccc(Cl)cc2)ccc1OCC(=O)N1CC(C)OC(C)C1` (stereo not given) gave MARV entry inh inconclusive, RE007 growth inh 4%, SARS PLpro yeast -4%, 2A StopGo -23% and Lassa entry inh -16%.
For CC(C)(C)c1ccc(NC(=O)COC(=O)C2=COCCO2)cc1 the results were MARV entry inh 8%, Cruzain inh Det -0.5%, Cruzain inh noDet 2%, RE007 growth inh 13%, SARS PLpro yeast -6%, NS1 function inh -13%, 2A StopGo 17% and Lassa entry inh 23%.
Screening O=C(NC1CCCc2ccccc21)c1n[nH]c(=O)c2ccccc12 (stereo not given) returned MARV entry inh -23%[46.1 µM], RE007 growth inh 0%, SARS PLpro yeast 0%, NS1 function inh 9%, 2A StopGo -7% and Lassa entry inh -6%.
Screening Cc1ccc(C2C=NN(c3ccccc3)C2=O)cc1 (stereo not given) returned RE007 growth inh -7%, SARS PLpro yeast -1%, NS1 function inh 5% and 2A StopGo 44%[activator].
`O=C(Nc1nnc(CCN2CCCCC2)s1)c1ccc(Cl)cc1Cl` gave RE007 growth inh 5%, SARS PLpro yeast 0%, NS1 function inh -2% and 2A StopGo 9%.
Screening Cc1ccc(C(=O)C(C)OC(=O)C2CCN(c3ccc(C(F)(F)F)cn3)CC2)cc1C (stereo not given) returned MARV entry inh -25%, RE007 growth inh -10%, SARS PLpro yeast -2%, 2A StopGo -2% and Lassa entry inh -13%.
For C=CCNC(=O)CN(c1ccccc1OCC)S(=O)(=O)c1ccc(C)cc1 the results were MARV entry inh 0%, Cruzain inh Det -0.6%, Cruzain inh noDet 10%, RE007 growth inh 11%, SARS PLpro yeast -1%, NS1 function inh -72%, 2A StopGo 16% and Lassa entry inh -4%.
Screening Clc1ccc(-c2cc(CN3CCOCC3)no2)cc1 returned MARV entry inh inconclusive, RE007 growth inh -19%, SARS PLpro yeast -1%, NS1 function inh 4%, 2A StopGo 6% and Lassa entry inh -10%[46.1 µM].
For N#Cc1cn(-c2ccccc2)nc1-c1ccccc1 the results were MARV entry inh 1%, Cruzain inh Det 0.2%, Cruzain inh noDet -6%, RE007 growth inh 4%, SARS PLpro yeast 1%, NS1 function inh -6% and Lassa entry inh 0%.
CCC(C)C(NC(=O)c1ccc(Cl)cc1)C(=O)Nc1cccnc1 (stereo not given) was read as MARV entry inh inconclusive, RE007 growth inh -18%, SARS PLpro yeast 2%, NS1 function inh -3%, 2A StopGo -12% and Lassa entry inh -17%[46.1 µM].

Sorted by length of the SMILES (ascending): part of the list above.
Screening Cc1ccc(C2C=NN(c3ccccc3)C2=O)cc1 (stereo not given) returned RE007 growth inh -7%, SARS PLpro yeast -1%, NS1 function inh 5% and 2A StopGo 44%[activator].
CCC(C)C(NC(=O)c1ccc(Cl)cc1)C(=O)Nc1cccnc1 (stereo not given) was read as MARV entry inh inconclusive, RE007 growth inh -18%, SARS PLpro yeast 2%, NS1 function inh -3%, 2A StopGo -12% and Lassa entry inh -17%[46.1 µM].
CCOc1ccc(-c2nc3c(c(SCC(=O)N4CCCCC4)n2)Cc2cccc(OC)c2O3)cc1 was read as MARV entry inh 0%[46.1 µM], Cruzain inh Det -0.9%, Cruzain inh noDet -1%, 2A StopGo -8% and Lassa entry inh 7%[46.1 µM].

Next results
`Cc1ccc(CNC2=NCCCCC2)n1C` gave MARV entry inh 6%, Cruzain inh Det -2.2%, Cruzain inh noDet 8%, RE007 growth inh -5%, SARS PLpro yeast 0%, NS1 function inh 1%, 2A StopGo -8% and Lassa entry inh -2%.
Screening CCOC(=O)c1ccc2c(c1)nc(COc1ccc(OC)cc1)n2CC returned MARV entry inh -2%, Cruzain inh Det -0.9%, Cruzain inh noDet 2%, RE007 growth inh -9%, SARS PLpro yeast 0%, NS1 function inh -79%, 2A StopGo -13% and Lassa entry inh -10%.
For O=C(Nc1ccccc1)N1CCC(c2nc(-c3ccc(S(=O)(=O)N4CCOCC4)cc3)no2)CC1 the results were MARV entry inh inconclusive, Cruzain inh Det -6.0%, Cruzain inh noDet inconclusive, RE007 growth inh -10%, SARS PLpro yeast 0%, NS1 function inh -1%, 2A StopGo inconclusive and Lassa entry inh inconclusive.
`CC(/C=C/c1ccc(O)cc1)=N/O` gave MARV entry inh 22%[46.1 µM], Cruzain inh Det 22µM*, Cruzain inh noDet 7.9µM*, RE007 growth inh -8%, SARS PLpro yeast -10%, NS1 function inh 0%, 2A StopGo 18% and Lassa entry inh 0%.
CN(C)C(=O)CSc1nc2ccccc2c(=O)[nH]1 was read as MARV entry inh 12%[46.1 µM], Cruzain inh Det 1.9%, Cruzain inh noDet -7%, RE007 growth inh -4%, SARS PLpro yeast 4%, NS1 function inh -4%, 2A StopGo -1% and Lassa entry inh 9%.
Screening O=C(Nc1cccnc1)C1(F)C(F)(F)C(F)(F)C(F)(F)C(F)(F)C1(F)F returned MARV entry inh inconclusive, Cruzain inh Det -3.2%, Cruzain inh noDet 9%, RE007 growth inh 0%, SARS PLpro yeast -21%, NS1 function inh -40%, 2A StopGo -21% and Lassa entry inh 2%.
Screening CSc1ccc(CNC(=O)C2CCN(c3nc4ccccc4nc3C(F)(F)F)CC2)cc1 returned Cruzain inh Det 0.8%, Cruzain inh noDet 3%, 2A StopGo -22% and Lassa entry inh -8%[46.1 µM].
O=C(COC(=O)c1cc(=O)[nH]c2ccccc12)NCc1cccs1 was read as MARV entry inh 8%, RE007 growth inh 6%, SARS PLpro yeast 0%, NS1 function inh -2%, 2A StopGo 11% and Lassa entry inh 2%.
CCn1c(C)nc2cc(C(=O)N/N=C/c3cccc(OC)c3O)ccc21 was read as MARV entry inh inconclusive, RE007 growth inh -15%, SARS PLpro yeast 8%, NS1 function inh -8%, 2A StopGo 5% and Lassa entry inh inconclusive.
Cc1cc(C(=O)NC2CCCc3c2cnn3-c2cccc(C)c2C)n(C)n1 (stereo not given) was read as RE007 growth inh -14%, SARS PLpro yeast -2%, NS1 function inh -8% and 2A StopGo inconclusive.
For O=C(CSc1nnc(-c2ccco2)n1CC1CCCO1)c1ccccc1 (stereo not given) the results were MARV entry inh 16%, Cruzain inh Det 1.4%, Cruzain inh noDet 2%, RE007 growth inh 6%, SARS PLpro yeast 12%, NS1 function inh 2%, 2A StopGo 7% and Lassa entry inh 0%.
For Cc1ccccc1CN1CCN(C(=O)c2cccc(F)c2)CC1 the results were MARV entry inh 17%[46.1 µM], Cruzain inh Det 8.9%, Cruzain inh noDet 7%, RE007 growth inh 0%, SARS PLpro yeast 0%, NS1 function inh -3%, 2A StopGo -18% and Lassa entry inh -14%.
Screening O=S(=O)(N/N=C1/CC(c2ccccc2)Oc2ccccc21)c1ccccc1 (stereo not given) returned MARV entry inh inconclusive, RE007 growth inh -14%, 2A StopGo -13% and Lassa entry inh -5%[46.1 µM].
`O=C1c2ccccc2C(=O)N1c1ccccc1S(=O)C(F)(F)F` (stereo not given) gave MARV entry inh inconclusive, Cruzain inh Det -1.3%, Cruzain inh noDet 5%, RE007 growth inh -6%, SARS PLpro yeast 2%, NS1 function inh 19%, 2A StopGo 0% and Lassa entry inh -2%.
`C[C@]12C(=O)N(c3ccc(Br)cc3)C(=O)N1[C@@H]1c3ccccc3OC[C@@H]1[C@H]2c1ccccc1` gave RE007 growth inh 1%, SARS PLpro yeast 4%, NS1 function inh inconclusive and 2A StopGo -17%.
O=S(=O)(c1cccc2cccc(Cl)c12)N1CCCC1 was read as RE007 growth inh -25%, SARS PLpro yeast -1%, NS1 function inh 1% and 2A StopGo 24%.
Cc1ccc(CNS(=O)(=O)c2cc(F)ccc2CN2C(=O)c3cccnc3C2=O)o1 was read as MARV entry inh 15%[46.1 µM], RE007 growth inh -14%, SARS PLpro yeast -1%, NS1 function inh 1%, 2A StopGo 2% and Lassa entry inh 15%[46.1 µM].
Screening COc1ccccc1C(C)NCC(=O)Nc1ccccc1C(F)(F)F (stereo not given) returned MARV entry inh inconclusive, Cruzain inh Det 2.4%, Cruzain inh noDet -4%, RE007 growth inh -4%, SARS PLpro yeast -2%, NS1 function inh 10%, 2A StopGo inconclusive and Lassa entry inh -20%.
For CCn1ccnc1CNC(=O)CC1C(=O)NCCN1CCCc1ccccc1 (stereo not given) the results were MARV entry inh -1%, RE007 growth inh 2%, SARS PLpro yeast 4%, NS1 function inh -5%, 2A StopGo -21% and Lassa entry inh 1%.
Screening CC(=O)Cc1nsc(NC(=O)c2ccc(COc3ccc(C)cc3)o2)n1 returned MARV entry inh 15%[46.1 µM], Cruzain inh Det -8.6%, Cruzain inh noDet inconclusive, RE007 growth inh -1%, SARS PLpro yeast -2%, NS1 function inh -53%, 2A StopGo -5% and Lassa entry inh 5%.
